# B2AR arrestin: qHTS assay of beta-arrestin-biased ligands of beta2-adrenergic receptor; Beta-2 adrenergic receptor (Homo sapiens), P07550; beta-arrestin recruitment to beta2AR, cell-based reporter; actives 0.02% (n = 330,000); Potency, µM (top dose mostly 46.1 µM), without a hit: at the highest dose activation, hits mostly activators;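 also: potency is read from the fitted curve at half-maximal effect; 0% = DMSO controls and full agonism = EC100 isoproterenol or metaproterenol; nearly all actives have a fitted effect of over 65% in size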
# Giardia kill: Small Molecules that selectively kill Giardia lamblia: qHTS | Giardia lamblia trophozoite viability | activity change, % at 7.66 µM, hits read low | actives 0.15% (n = 340,000); in the data active = activity change below about -80%; inconclusive = between about -30% and that limit;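 also: parasites exposed to compound for two days anaerobically before the ATP read; % is scaled to controls: 0 for no effect and ±100 for the full control effect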
#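 ATP-content bioluminescence gauges trophozoite survival. Cells (100/well) receive compound and incubate anaerobically for 48 hrs at 37 deg C; detection reagent follows for 15-30 min at room temperature.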
# Coupling enz: qHTS Assay for Inhibitors of Fructose-1,6-bisphosphate Aldolase from Giardia Lamblia: Coupling assay counterscreen; activity change, negative = inhibition, % at 58.2 µM, hits read low; actives 0.67% (n = 290,000); coupling enzyme system counterscreen, AmpLite Red fluorescence; in the data active = activity change below about -30%; also: % is scaled to controls: 0 for no effect and ±100 for the full control effect
#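 Counterscreen of the coupled detection system alone, without aldolase: glyceraldehyde-3-phosphate coupling enzymes plus AmpLite Red readout. Compounds at 57.5 uM final, 10 min RT preincubation, 20 min RT reaction, fluorescence 525/598 nm.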
# CXXC DNA block: qHTS Fluorescence Polarization Assay for Inhibitors of MLL CXXC domain - DNA interaction; Histone-lysine N-methyltransferase 2A (Homo sapiens), Q03164; MLL-CXXC / FITC-HOXA9 DNA fluorescence polarization; Potency, µM (top dose mostly 115 µM), inactives show at the highest dose activity change, negative = inhibition, hits mostly inhibitors; actives 0.037% (n = 290,000); active = well fitted inhibition curve with a large enough effect in the polarisation, with a control signal flat, not every such curve was filed as active; inconclusive = small, poorly fitted or top-dose-only effect, or effect the other way, or a change in a side signal; inactive = no such curve, though single readings can be large or run the other way; the % refers to the polarisation; also: potency is read from the fitted curve at half-maximal effect
#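 Purified MLL-CXXC (added from a 7 uM solution) was preincubated 5 min at ambient with pinned compounds in 50 mM Tris-HCl pH 7.5, 50 mM NaCl, 1 mM DTT, 0.05% BSA. Fluorescein-labeled HOX-A9 DNA (50 nM solution) followed, 30 min, then polarization read.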
# GALK inh: qHTS Assay for Inhibitors of Human Galactokinase (GALK); AID 1868, 2009; Purified GALK, Kinase-Glo residual ATP luminescence; actives 0.007% (n = 270,000); Potency, µM (series often up to 57.5 µM), without a hit: at the highest dose activity change, negative = inhibition, actives largely listed as inhibitors; P51570; also: potency is read from the fitted curve at half-maximal effect; % is scaled to controls: 0 for no effect and ±100 for the full control effect
#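 Compounds were pin-transferred into ATP buffer (35 uM final), then GALK plus galactose (5 nM, 100 uM final) was added. After 1 h at room temperature, Kinase-Glo Plus was added and luminescence read after 10 min.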
# KCNH2 3.1 inh: qHTS for Inhibitors of KCHN2 3.1: Mutant qHTS | AID 720553, 2013 | U2OS KCNH2 3.1, thallium flux FluxOr; active compounds read low | actives 0.95% (n = 340,000) | Potassium voltage-gated channel subfamily H member 2, brain isoform KCNH2 3.1 (human) | activity change, % (tested at about 1.8 µM);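 active = maximum activity change below -70%; inconclusive = maximum activity change from -70% to -50%; inactive = maximum activity change above -50%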;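 also: thallium influx rate constant from kinetic fluorescence after stimulation buffer; % is scaled to controls: 0 for no effect and ±100 for the full control effect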
#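 U2OS cells transduced with KCNH2 3.1 mutant virus (1.77 x 10^8 /mL, 4 h), plated overnight at 37 C, loaded 45 min with FluxOr dye plus Red40 quencher. Thallium flux rate constant from kinetic reads after stimulation buffer, normalised to controls.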
# hERG WT inh: qHTS for Inhibitors of KCHN2 3.1: Wildtype qHTS | Voltage-gated inwardly rectifying potassium channel KCNH2 (Homo sapiens), Q12809 | U2OS, BacMam KCNH2, thallium flux FluxOr; active compounds read low | activity change, % at 1.84 µM | actives 0.37% (n = 340,000);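 active = maximum activity change below -70%; inconclusive = maximum activity change between -70% and -50%; inactive = maximum activity change above -50%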; also: % is scaled to controls: 0 for no effect and ±100 for the full control effect
# Target sequence (Q12809 whole entry, looked up): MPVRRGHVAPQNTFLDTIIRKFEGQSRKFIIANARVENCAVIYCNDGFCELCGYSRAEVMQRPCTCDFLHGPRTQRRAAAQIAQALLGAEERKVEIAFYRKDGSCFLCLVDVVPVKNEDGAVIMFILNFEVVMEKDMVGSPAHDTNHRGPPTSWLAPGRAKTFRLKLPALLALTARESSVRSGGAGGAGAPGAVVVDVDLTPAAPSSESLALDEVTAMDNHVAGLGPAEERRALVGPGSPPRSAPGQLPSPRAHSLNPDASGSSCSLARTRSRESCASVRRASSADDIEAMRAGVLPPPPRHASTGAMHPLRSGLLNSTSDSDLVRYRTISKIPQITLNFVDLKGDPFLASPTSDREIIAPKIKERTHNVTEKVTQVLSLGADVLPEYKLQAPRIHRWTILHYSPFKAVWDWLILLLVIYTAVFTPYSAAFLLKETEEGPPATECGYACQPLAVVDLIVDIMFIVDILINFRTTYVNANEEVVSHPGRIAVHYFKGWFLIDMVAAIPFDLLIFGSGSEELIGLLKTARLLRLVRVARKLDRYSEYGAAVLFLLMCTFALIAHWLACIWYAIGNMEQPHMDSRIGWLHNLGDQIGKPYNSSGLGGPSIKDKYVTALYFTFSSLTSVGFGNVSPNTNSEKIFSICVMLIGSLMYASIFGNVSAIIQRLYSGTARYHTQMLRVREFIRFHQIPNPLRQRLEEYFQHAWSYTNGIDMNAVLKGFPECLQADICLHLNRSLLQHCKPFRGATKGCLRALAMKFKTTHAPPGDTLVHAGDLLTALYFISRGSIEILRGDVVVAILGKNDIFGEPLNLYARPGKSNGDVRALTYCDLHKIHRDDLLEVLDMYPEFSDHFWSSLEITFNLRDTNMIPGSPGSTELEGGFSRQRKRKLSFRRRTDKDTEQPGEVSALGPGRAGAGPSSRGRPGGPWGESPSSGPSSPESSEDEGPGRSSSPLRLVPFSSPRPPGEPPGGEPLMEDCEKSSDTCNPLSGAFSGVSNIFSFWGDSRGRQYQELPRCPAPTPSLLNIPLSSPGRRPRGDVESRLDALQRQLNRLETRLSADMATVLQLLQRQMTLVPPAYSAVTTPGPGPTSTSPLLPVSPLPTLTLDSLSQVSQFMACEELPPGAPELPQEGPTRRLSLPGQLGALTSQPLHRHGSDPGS
#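 U2OS cells were transduced with wild-type KCNH2 virus (2.03 x 10^8 / mL) for 4 h at room temperature, then cultured overnight at 37 C. Thallium flux was read with FluxOr dye. Rate constants were normalized to DMSO controls.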
# TRPV1 agonist: HTS Assay for Compounds that Act as Agonists of the Vanilloid Receptor 1; actives 0.19% (n = 320,000); activation, % at 8.33 µM; Transient receptor potential cation channel subfamily V member 1 (Homo sapiens), Q8NER1; TRPV1-expressing cells, Fluo-8 calcium influx, agonist mode; in the data active = activation above about 80%; inconclusive = between about 30% and that limit; also: 0% is about no effect
#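 TRPV1-expressing cells were cultured overnight at 35.5C and loaded with Fluo-8 calcium dye for 40 to 90 min at room temperature. After a 10 s baseline, compound was added and calcium influx was read kinetically for 3 min (ex 480/em 520 nm).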
# USP2a block: qHTS Assay for Inhibitors of Ubiquitin-specific Protease USP2a Using CHOP2 as the Reporter; USP2 core, Ub-CHOP2 coupled fluorogenic reporter, 485/531; Potency, µM (doses to about 38.3 µM), without a hit: top-dose activity change, negative = inhibition, usual class: inhibitors; actives 0.01% (n = 330,000); AID 463254, 2010;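 also: potency is read from the fitted curve at half-maximal effect; plate controls were DMSO wells for no effect and full inhibition by NEM control for full effect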
#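 Cell-free coupled assay: 10nM USP2 core preincubated 30min RT with compound in Tris-HCl pH 8.0/CaCl2/CHAPS buffer, then 25nM Ub-CHOP2 and 25nM reporter substrate; fluorescence (Ex 485/Em 531) read after 60min RT, normalized to NEM inhibition, concentration-response curves fitted.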
# PKM2 activator: qHTS Assay for Activators of Human Muscle isoform 2 Pyruvate Kinase; Pyruvate kinase PKM (Homo sapiens), P14618; purified PKM2, Kinase-Glo ATP luminescence, activation; response scale: 0% is enzyme alone, no compound; Potency, µM (top dose mostly 57.5 µM), inactives show top-dose activation, actives largely listed as activators; actives 0.34% (n = 260,000); AID 1631, 2009; also: potency is read from the fitted curve at half-maximal effect; % is scaled to controls: 0 for no effect and ±100 for the full control effect; nearly all actives have a fitted effect of over 55% in size
#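 Purified hPK-M2 (>95%) run at intermediate activity with 0.1 mM ADP and 0.5 mM PEP in 50 mM imidazole pH 7.2, KCl, MgCl2; 1 h room temperature. ATP formed read by Kinase-Glo luminescence; normalized to uninhibited and no-enzyme controls.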
# * marks the source's active call; other numbers are inactive results; u = inconclusive; x = not tested or not shown; [ ] = dose if it differs, or a comment. Unless noted, calls follow the shape of the dose curve; as a rule, active = well fitted curve in the direction sought with a large enough effect; inconclusive = small, poorly fitted or top-dose-only effect, or another doubt; inactive = no such curve, though single readings can be large; an effect the other way counts as inactive or inconclusive.
structure	B2AR arrestin	Giardia kill	Coupling enz	CXXC DNA block	GALK inh	KCNH2 3.1 inh	hERG WT inh	TRPV1 agonist	USP2a block	PKM2 activator
COc1ccc(/C=C2\Sc3ccc(C(=O)N4CCc5ccccc5C4)cc3N(C)C2=O)cc1	-0.7%	x	-0.2	0.6%	0.0%	x	x	-1.4	2.5%	0.7%
CC(=O)CSc1nnc(-c2ccco2)n1-c1ccccc1	0.4%	-8.2	3.8	0.0%	-0.2%	10.9	-0.3	-0.2	2.4%	x
Cc1cccc(C(=O)OCC(=O)Nc2sc3c(c2C#N)CCC3)c1	-0.2%	8.1	3.3	9.2%	1.3%	24.3	-10.3	2.2	-1.9%	6.0%
COc1ccc(C2SC[C@@H](C(=O)O)N2C(C)=O)cc1 (stereo partly specified)	-0.4%	11.7	1.1	8.5%	2.0%	-1.2	-2.6	-0.1	2.0%	-3.3%
CC(=O)Nc1cc2c(cc1NC(=O)c1cnccn1)OCCO2	-0.2%	-25.8	3.4	-1.3%	0.7%	8.9	2.1	-5.4	2.9%	9.0%
CC(C)(C)c1ccc(C2(C)NC(=O)N(CC(=O)c3ccc[nH]3)C2=O)cc1 (stereo unspecified)	0.0%	-1.3	x	0.2%	-3.5%	-5.2	-5.1	1.6	3.2%	2.7%
O=C(O)c1cc2ccc3ccccc3c2oc1=O	0.0%	-3.1	-15.7	-23.6%	-2.5%	-15.4	3.4	-2.9	-0.9%	-16.3%
O=C1CCC/C(=N/NC(=O)c2ccc(NS(=O)(=O)c3cccs3)cc2)C1	-0.3%	11.2	5.6	-10.8%	1.8%	-7.2	8.9	4.3	2.1%	9.9%
c1ccc2c(c1)Cn1c-2nc2ccccc21	-0.2%	-18.1	-2.9	-6.3%	9.1%	3.5	-17.1	16.3	-0.9%	-46.4%
CCc1n[nH]c(=S)n1/N=C/c1cc(Br)c(OC)cc1OC	-0.5%	7.3	11.2	-0.4%	-1.7%	5.8	1.0	16.2	-9.0%	-10.0%
Cc1ccc(NC(=O)C2CC(Cl)=CCC2C(=O)O)c([N+](=O)[O-])c1 (stereo unspecified)	0.1%	1.6	1.5	-6.5%	-0.2%	3.7	x	-2.5	0.1%	-2.8%
CCOc1cc(S(=O)(=O)NCc2ccc3c(c2)OCO3)c(C)cc1C	-0.1%	0.1	-1.4	-5.5%	-2.1%	-2.0	3.0	10.8	0.4%	-14.3%
COc1ccc(/C(O)=C2\C(=O)C(=O)N(c3cc(C)on3)C2c2ccc(OC)c(OC)c2)cc1OC (stereo unspecified)	-0.2%	-15.2	7.6	-14.6%	-4.3%	9.2	1.9	-0.7	1.8%	-1.9%
COc1ccccc1NC(=O)C1=C(C)Nc2nnnn2C1c1ccncc1 (stereo unspecified)	0.1%	9.9	x	5.7%	0.9%	-2.3	-11.8	-1.4	-1.0%	3.9%
O=C1Nc2cc(C(=O)N3CCc4ccccc4C3)ccc2S/C1=C\c1ccccc1	-0.1%	-18.3	-0.9	6.1%	x	6.5	-20.1	3.3	-0.2%	-8.1%
CC(C)c1ccc(NC(=O)CCc2ccccc2)cc1	-0.2%	-6.8	-0.4	-4.7%	4.6%	-2.8	11.9	u	-5.9%	11.3%
O=C(/C=C/c1ccccc1F)c1ccoc1	0.4%	-6.5	1.2	-4.2%	1.9%	26.9	-1.5	16.1	1.1%	0.0%
O=c1nc2n(c3ccccc13)Cc1ccccc1-2	-0.2%	x	0.5	2.1%	-1.2%	x	x	-1.7	1.3%	-11.1%
CN(Cc1c(F)cccc1Cl)C(=O)c1cnc2ccccc2n1	-0.3%	8.9	3.0	18.6%	-2.2%	-0.5	0.6	3.3	0.2%	-6.7%
COc1ccc(-c2ccc(C#N)c(SCC(=O)Nc3sc4c(c3C#N)CCC4)n2)cc1OC	0.4%	-11.2	2.6	46.4%[activator]	0.3%	1.1	-18.0	0.0	3.7%	7.9%
CN1CCN(C(=O)CNc2ccc(C(F)(F)F)cc2[N+](=O)[O-])CC1	-0.1%	9.3	2.6	12.6%	7.7%	-7.1	-2.8	7.3	3.1%	-3.8%
Cc1ccc(C2NC(=S)NC3=C2C(=O)CC(C)(C)C3)cc1 (stereo unspecified)	-0.9%	10.9	3.7	12.6%	0.3%	6.7	-14.9	2.8	4.1%	8.1%
CN1C(=O)[C@H]2[C@@H](C3CC3)N3C(=O)CN(Cc4ccccn4)C(=O)[C@@]3(Cc3ccccc3)[C@H]2C1=O	0.0%	-20.3	1.7	3.6%	x	-1.8	-12.9	2.0	-0.8%	0.7%
COc1ccc(S(=O)(=O)N(CCCN2CCOCC2)Cc2ccc(OC)c(OC)c2)cc1	-0.6%	-1.5	0.0	-2.1%	1.4%	-5.6	5.4	4.3	2.8%	-0.1%
CCOC(=O)c1cc(C#N)c(N2CCCNCC2)nc1C(F)(F)F	0.1%	-7.3	0.0	-1.6%	9.0%	-5.9	-7.4	3.8	0.4%	x
CCN(CC)C(=O)C1=C(C)Nc2nnnn2C1c1cccnc1 (stereo unspecified)	-2.2%	-5.2	-5.4	-3.5%	-3.4%	5.8	-6.1	1.6	-1.0%	-3.0%
O=c1c2ccccc2nc(-c2ccccc2)n1CCCN1CCOCC1	-0.1%	20.9	-2.7	0.6%	-4.3%	2.2	-1.3	-0.8	2.4%	-0.3%
CCOC(=O)c1cc(C#N)c(N2CCN(c3ccccn3)CC2)nc1-c1ccccc1	0.0%	18.7	0.6	13.3%	-0.4%	-94.0*	4.1	4.6	4.4%	-4.8%
C=CCn1c(C)cc(C(=O)COc2ccc(S(=O)(=O)N3CCCC3)cc2[N+](=O)[O-])c1C	-0.2%	-18.2	-2.6	15.3%	0.7%	-16.6	0.4	0.4	-0.1%	0.8%
CCn1c(COc2ccc(Cl)cc2)nnc1SCC(=O)Nc1ccc2c(c1)OCCO2	-0.3%	-0.8	2.0	-1.5%	1.0%	4.7	-10.9	1.8	-2.4%	-9.8%
c1ccc(-c2nn3cnnc3c3ccccc23)cc1	0.7%	0.6	6.7	-0.3%	1.8%	-0.3	-4.4	7.7	0.4%	5.9%
COc1ccc(-c2nn3c(COc4ccccc4)nnc3s2)cc1OC	0.1%	-1.4	1.6	4.0%	4.9%	6.2	-3.9	-2.2	-6.8%	u
COc1cc2c(cc1OC)CN(C(=O)/C=C/c1ccccc1[N+](=O)[O-])CC2	0.1%	-8.7	3.7	-3.8%	14.1%	1.6	-19.1	1.5	0.9%	5.6%
CC(=O)Nc1ccc(NC(=O)CSc2ccc(-c3ccco3)nn2)cc1	0.1%	19.4	1.0	-11.8%	-1.3%	5.5	3.0	0.5	1.4%	6.0%
COc1cc(C)c(Cl)c(C)c1S(=O)(=O)NCc1ccc2c(c1)OCO2	-0.1%	17.0	1.1	-1.0%	-1.5%	-8.2	-2.5	20.9	0.8%	-13.2%
CC(NC(=O)CCC(=O)NCc1ccc(F)cc1)c1ccccc1 (stereo unspecified)	-0.4%	2.6	1.8	-7.6%	5.2%	8.1	1.3	-7.5	0.9%	-16.9%[11.5 µM]
Cc1cc(C)c(NC(=O)C2CCCO2)c(C)c1NC(=O)C1CCCO1 (stereo unspecified)	0.1%	8.5	0.9	26.6%	-3.5%	-1.1	12.4	-0.3	3.4%	-1.2%
Cc1ccc(-n2cccc2/C=C2/NC(=O)N(CC(=O)Nc3cccc(C)c3)C2=O)cc1	-0.2%	4.3	3.5	8.6%	x	0.7	1.7	-2.1	-0.4%	1.4%
CCN1CCCC1CNS(=O)(=O)c1ccc(C(=O)Nc2ccccc2)cc1 (stereo unspecified)	-0.3%	-1.1	3.8	8.3%	0.0%	1.8	-4.0	1.9	0.1%	2.5%
CC(O)c1cccc(NC(=O)CCCc2ccccc2)c1 (stereo unspecified)	0.7%	-5.7	-1.2	0.1%	0.0%	10.2	-1.3	14.7	-2.8%	0.2%
CC1CCN(C(=O)CCNC(=O)Cn2cnc3sc4c(c3c2=O)CCCC4)CC1	-0.3%	-18.0	10.2	10.5%	-0.2%	-3.8	0.0	5.3	0.1%	-3.6%

# High-throughput results deposited in PubChem BioAssay by National Center for Advancing Translational Sciences (NCATS).

# A portion of the library, so the mix of outcomes need not match the whole.
